Assay outcomes as filed in PubChem BioAssay.
GALR2 agonist – GALR2 receptor agonists, primary screen, cell-based; Galanin receptor type 2 (Homo sapiens), O43603; GALR2-expressing cells, agonist activation read-out; activation, %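 (tested at 5 µM)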; hit rate 0.48% among 140,000; AID 803, 2007;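 active means above mean plus 3 SD of all compounds, about 5% in these data, not always enough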;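 further: 0% = vehicle buffer wells and 100% = reference agonist at full effect; tested in CHO reporter cells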
Target sequence (O43603 whole entry, looked up): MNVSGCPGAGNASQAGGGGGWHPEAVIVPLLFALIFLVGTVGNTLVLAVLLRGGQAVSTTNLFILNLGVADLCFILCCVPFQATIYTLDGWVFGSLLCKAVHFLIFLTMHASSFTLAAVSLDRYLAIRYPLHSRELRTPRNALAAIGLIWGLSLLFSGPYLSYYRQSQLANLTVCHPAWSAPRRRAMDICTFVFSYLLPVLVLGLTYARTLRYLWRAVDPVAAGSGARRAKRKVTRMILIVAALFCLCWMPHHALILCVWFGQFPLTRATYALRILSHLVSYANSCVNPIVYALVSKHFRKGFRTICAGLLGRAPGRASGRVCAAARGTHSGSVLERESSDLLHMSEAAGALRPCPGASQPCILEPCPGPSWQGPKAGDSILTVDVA
HSV augment – enhancers of HSV replication in host cells, fold increase, host cell viability; hit rate 0.005% among 220,000; maximum fold increase; AID 1956, 2009; HSV replication augmentation in cells;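 active means peak rise of 1.5-fold or more in the series; tested in PC3 cells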;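 further: first round at 10 µM; read as green reporter fluorescence; hits show the peak of a series up to 25 µM; 1 = signal of infected wells without compound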
INS promoter inh – inhibitors of insulin promoter-driven GFP, primary screen, imaging, TRM-6 cells (human fetal islet line), eGFP reporter, cell count; hit rate 0.9% among 130,000; inhibition, % at 2 µM; reporter expression induced with tamoxifen; AID 1273, 2008;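 active means inhibition above the mean plus 3 SD, with well images judged a real hit on visual review, cut at about 60% in these data, passing the limit was not always enough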
PKD1 inh – inhibitors of human PKD1 kinase, biochemical, fluorescence polarization; PKD1 kinase fluorescence polarization assay; inhibition, %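 (about 10 µM by stock and volumes)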; hit rate 0.056% among 200,000; AID 797, 2007;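 active means inhibition of 50% or more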;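 further: controls were vehicle for no effect and a reference inhibitor for full effect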
RGS16-Gao – modulators of RGS16 binding to Galphao, primary screen, biochemical, human proteins, multiplexed bead flow cytometry. Regulator of G-protein signaling 16 (Homo sapiens) + Guanine nucleotide-binding protein …. bead-based flow cytometry RGS16-Galphao binding, fluorescence; actives lie on both sides. binding response (% of control), % at 10 µM. hit rate 0.38% among 220,000;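 active means below 25% or above 175%, edge rows of some plates excepted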;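 further: Galphao activated by GDP with aluminum fluoride before binding; 100% = wells without compound and 0% = beads without RGS; some results beyond the cut were filed as inactive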
Target sequence (O15492 whole entry, looked up): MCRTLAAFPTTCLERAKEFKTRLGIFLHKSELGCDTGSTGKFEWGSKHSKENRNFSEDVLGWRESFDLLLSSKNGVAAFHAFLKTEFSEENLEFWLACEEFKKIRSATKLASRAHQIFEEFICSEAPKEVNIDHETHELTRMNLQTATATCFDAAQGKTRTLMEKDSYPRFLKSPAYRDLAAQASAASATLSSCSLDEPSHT
Target sequence (P09471 whole entry, looked up): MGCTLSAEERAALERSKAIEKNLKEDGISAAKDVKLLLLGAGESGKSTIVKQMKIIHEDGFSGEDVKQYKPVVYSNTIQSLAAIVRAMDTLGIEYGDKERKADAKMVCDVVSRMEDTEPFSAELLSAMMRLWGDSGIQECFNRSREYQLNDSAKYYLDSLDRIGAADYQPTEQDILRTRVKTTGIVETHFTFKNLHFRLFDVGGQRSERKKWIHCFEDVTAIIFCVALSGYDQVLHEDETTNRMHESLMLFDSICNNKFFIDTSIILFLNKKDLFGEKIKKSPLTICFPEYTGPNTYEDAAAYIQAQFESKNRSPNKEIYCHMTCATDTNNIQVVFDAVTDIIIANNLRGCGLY
INS promoter inh cell count – second read-out of INS promoter inh, no call of its own (marks repeat the call); normalized cell count, %; measured here: cell count, toxicity; reference of the scale not given here;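 cells exposed to compound for 48 h; stained nuclei by imaging scaled within each plate; lower means fewer cells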
HSV augment primary fold – recorded beside HSV augment, whose call it bears; fold increase; compound at 10 µM; measured here: primary screen fold increase 10 uM; tested in PC3 cells;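 GFP signal in the first replicate; 1 = infected wells without compound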
* hit, by the source's call; i = inactive; · = not tested or not shown.

SMILES	GALR2 agonist	HSV augment	HSV augment primary fold	INS promoter inh	INS promoter inh cell count	PKD1 inh	RGS16-Gao
O=C(Nc1ccc(NC(=S)NC(=O)c2cccs2)cc1)c1ccco1	·	i	0.89	·	·	-13	101
COc1ccc(N=C2SC(C(=O)Nc3ccc(C(=O)O)cc3)CC(=O)N2Cc2cccs2)cc1 (configuration not stated)	·	i	1	·	·	·	99
S=c1nc(-c2cc(Cl)cc(Cl)c2)[nH][nH]1	·	i	1.1	·	·	·	95
O=C(N/N=C/c1ccccc1OC(F)F)NC1CCCCC1	·	i	0.82	·	·	·	97
COc1ccc(C(C#N)C2(C)OCCO2)cc1OC (configuration not stated)	-4.3	i	0.7	50	111	-12	109
Cn1c(OCc2ccco2)nc2c1c(=O)n(Cc1ccc(Cl)c(Cl)c1)c(=O)n2C	-1.1	i	1	28	115	0	99
CCn1c2ccccc2c2nc3cc(OC)c(OC)cc3nc21	1.3	i	0.82	·	·	6	105
COc1ccc(C(C#N)N2CCOCC2)cc1 (configuration not stated)	-1.1	i	0.94	-170	90	-6	102
COC(=O)c1nn2c(C(F)(F)F)cc(-c3ccc(Br)o3)nc2c1Br	0.6	i	0.96	-38	70	-1	·
CCCNc1cc(C)oc(=O)c1C(=O)CC	·	i	0.99	56	109	4	107

Complete entries, looked up by structure. Values in the order: GALR2 agonist, HSV augment, HSV augment primary fold, INS promoter inh, INS promoter inh cell count, PKD1 inh, RGS16-Gao
CCn1c2ccccc2c2nc3cc(OC)c(OC)cc3nc21 is listed as 1.3, i, 0.82, ·, ·, 6, 105
COc1ccc(C(C#N)N2CCOCC2)cc1 (configuration not stated) is listed as -1.1, i, 0.94, -170, 90, -6, 102
COc1ccc(C(C#N)C2(C)OCCO2)cc1OC (configuration not stated) is listed as -4.3, i, 0.7, 50, 111, -12, 109
Cn1c(OCc2ccco2)nc2c1c(=O)n(Cc1ccc(Cl)c(Cl)c1)c(=O)n2C is listed as -1.1, i, 1, 28, 115, 0, 99
O=C(N/N=C/c1ccccc1OC(F)F)NC1CCCCC1 is listed as ·, i, 0.82, ·, ·, ·, 97

The listing continues.
SMILES	GALR2 agonist	HSV augment	HSV augment primary fold	INS promoter inh	INS promoter inh cell count	PKD1 inh	RGS16-Gao
CCOC(=O)c1[nH]c2ccccc2c1N=CN(C)C	-0.9	i	0.92	-184	77	-4	·
COc1ccccc1-c1cc(C(=O)Nc2cc(C)on2)no1	0.2	i	0.74	·	·	-2	103
Cc1nn(C)c(C(=O)NC2C3CC4CC(C3)CC2C4)c1Cl (configuration not stated)	0.2	i	1	7	111	-6	9.8*
O=C(O)/C=C/C(=O)Nc1ccc(SC(F)(F)F)cc1	-1.4	i	0.95	50	117	-3	100
COc1ccc(NS(=O)(=O)c2cccc(NC(=O)CCC(=O)c3cccs3)c2)cc1	-2.4	·	·	0	107	-3	102
O=C(CCC(=O)c1cccs1)NCC(=O)Nc1ccc(F)c(F)c1F	0.0	i	1	29	120	-8	102
CCOC(=O)C1=C(C)N=c2sc(=C(C)C)c(=O)n2C1c1ccc(N(C)C)cc1 (configuration not stated)	-1.7	i	0.99	43	114	-5	·
CC(=O)Nc1ccc(Nc2cc(C)nc3c(-c4ccc(Cl)cc4)cnn23)cc1	0.8	i	1	80*	136*	4	105
CC(C)Oc1cc(NC(=O)CS(=O)CC(=O)N(C)C)c(Cl)cc1Cl (configuration not stated)	·	i	0.97	·	·	5	94
Cc1nc2cc(-n3ccc(=O)cc3)ccc2n1-c1ccccc1	-1.2	i	0.67	8	43	-1	107
COC(=O)C1=C(C)NC(C)=C(C(=O)OC)C1c1cc2cc(C)ccc2[nH]c1=O	-0.1	i	0.95	-59	83	0	103
OCC(O)C1OC(Nc2ccc(Cl)cc2)C(O)C1O (configuration not stated)	·	i	0.99	·	·	·	101
O=c1c(Cl)c(N2CCCCC2)cnn1-c1nc2ccccc2[nH]1	-0.3	i	0.73	-66	43	-1	120
C=CCn1c(Cc2ccc(OC)cc2)nnc1SCC(=O)c1cccc([N+](=O)[O-])c1	-0.8	i	1	·	·	5	102
Nn1c(COc2ccccc2)nnc1SCC(=O)O	-1.6	i	0.93	42	114	-8	105
O=C(O)C1CC=CCC1C(=O)Nc1cccc(Cl)c1Cl (configuration not stated)	-1.8	i	1	50	62	1	107
COc1ccc(C(=O)N2CCN(S(=O)(=O)c3ccc(F)cc3)CC2)cc1OC	·	i	1.1	·	·	1	196
CCCn1c2ccccc2c2nnc(SCC(=O)OCC)nc21	-1.8	i	0.88	0	165	-3	99
CSc1ccc(-c2nnn(Cc3ccccn3)n2)cc1	-0.4	i	0.94	·	·	5	106
CCn1c(-c2ccccc2)c(C(=O)O)c2ccccc21	-0.3	i	1	7	44	-9	87
NCCCC(N)(C(=O)O)C(F)F (configuration not stated)	0.6	i	0.77	-10	91	0	107
COC(=O)c1ccc(N2CCN(c3ccccc3)CC2)c(NC(=O)C2CC2)c1	-1.7	i	0.81	0	76	-10	101
CCOC(=O)CCCc1c[nH]c2ccccc12	-0.9	i	0.72	-37	58	0	112
COc1cccc(SCC(=O)N2CCN(c3ccccc3)CC2)c1	·	i	0.96	·	·	·	103
Cc1ccccc1-n1c(SCC(=O)N2CCN(c3ccccc3)CC2)nnc1-c1ccncc1	-0.4	i	1.1	-12	129	1	103
Cc1cccc(C)c1-n1c(C)cc(/C=N\NC(=O)CC(=O)NC2CCCCC2)c1C	0.3	i	0.96	·	·	-3	111
O=C(Cn1nc(Cc2cccnc2)c2ccccc2c1=O)N1CCN(C(=O)c2ccco2)CC1	-1.4	i	0.8	·	·	6	82
O=C(CSCC(=O)N1CCOCC1)Nc1nc(-c2ccc3c(c2)OCO3)cs1	-1.5	i	0.59	·	·	7	102
COc1ccc(CN2CCN(CC=C(C)C)C(CCO)C2)cc1Cn1cncn1 (configuration not stated)	·	i	1.1	·	·	4	96
Cc1ccc(S(=O)(=O)N(C)/N=C/C=C/c2ccccc2)cc1	-0.2	i	1.1	·	·	-8	97
Cn1cccc1CC(=O)N/N=C/c1cccc2ccccc12	1.5	i	0.99	9	143	-2	95
CCOC(=O)c1[nH]c2ccccc2c1NC(=S)Nc1ccccc1	-0.9	·	·	52	104	-6	·
O=C(c1ccccc1-c1ccccc1)N1CCCC1	-0.6	i	0.98	i	35	-17	97
CC1CC(C)CN(C(=S)Nc2ccc(OC(F)F)cc2)C1 (configuration not stated)	-0.5	i	0.96	-16	86	-16	108
O=C(/C=C/Nc1ccc(Oc2ccccc2Cl)cc1)c1ccco1	·	i	0.97	·	·	-7	102
CCOC(=O)c1ccc(NC(=O)NCc2ccncc2)cc1	-0.7	i	0.8	25	151	3	110
COc1ccc(OC)c(S(=O)(=O)N(C)CC(=O)Nc2cc(Cl)ccc2OC)c1	-2.9	i	1.1	-17	115	-6	109
COC(=O)C(C)N(c1ccc(OC)cc1)S(C)(=O)=O (configuration not stated)	·	i	0.87	17	140	-5	69
CC1CCN(S(=O)(=O)c2csc(C(=O)Nc3ccccc3)c2)CC1	-0.1	i	0.89	32	83	-1	33
Cn1c(N2CCC(C(N)=O)CC2)nc2c1c(=O)n(Cc1cccc(Br)c1)c(=O)n2C	-2.0	i	0.91	·	·	-5	103
Cc1ccc2c(c1)cc(CN(Cc1ccc3c(c1)OCO3)C(=O)c1ccccc1)c1nnnn12	-0.5	i	1.1	-8	59	-10	101
CCCSC1=N/C(=C\c2ccc([N+](=O)[O-])o2)C(=O)S1	·	i	1.1	·	·	1	98
CCn1ncc(Cl)c1C(=O)Nc1cc(Cl)ccc1Cl	-2.2	i	0.99	-88	114	-6	97
Cc1ccc(NC(=O)CSc2ccc(-c3ccc4c(c3)OCO4)nn2)cc1F	-1.0	i	0.97	·	·	3	104
CC(C)(C)c1cc(C(=O)NC2CC2)n(Cc2ccc(F)cc2)n1	·	i	0.9	·	·	·	103
CC(C)Cc1nc2oc3c(Cl)ncnc3c2c2c1CCCC2	·	i	0.84	·	·	·	100
Cc1nc2ncnn2c(N2CCN(S(=O)(=O)c3ccc(Br)cc3)CC2)c1C	·	i	0.9	-25	111	3	110
CC(C)c1ccc(/C=N/N2CCN(c3ccccn3)CC2)cc1	·	i	1.2	·	·	·	104
OC1(c2cccs2)CN(c2ccc(Cl)cc2)C2=[N+]1CCCC2 (configuration not stated)	·	i	0.85	·	·	8	107
O=C(N/N=C/c1ccc(OC(F)F)cc1OC(F)F)NC1CCCCC1	·	i	0.94	·	·	-6	102

Three structures out of the list, sorted by SMILES length, falling.
SMILES	GALR2 agonist	HSV augment	HSV augment primary fold	INS promoter inh	INS promoter inh cell count	PKD1 inh	RGS16-Gao
Cc1ccc2c(c1)cc(CN(Cc1ccc3c(c1)OCO3)C(=O)c1ccccc1)c1nnnn12	-0.5	i	1.1	-8	59	-10	101
Cc1nc2ncnn2c(N2CCN(S(=O)(=O)c3ccc(Br)cc3)CC2)c1C	·	i	0.9	-25	111	3	110
CCn1ncc(Cl)c1C(=O)Nc1cc(Cl)ccc1Cl	-2.2	i	0.99	-88	114	-6	97

(next part)
SMILES	GALR2 agonist	HSV augment	HSV augment primary fold	INS promoter inh	INS promoter inh cell count	PKD1 inh	RGS16-Gao
COCCNC(=O)C(c1cccnc1)N(Cc1ccc(C)cc1)C(=O)Cn1nnc2ccccc21 (configuration not stated)	·	i	0.97	-4	38	-8	101
O=C(c1cc2c([nH]c1=O)CCCC2)N1CCc2c([nH]c3ccccc23)C1c1ccccc1F (configuration not stated)	·	i	0.87	·	·	0	111
COc1ccc(Cn2nnnc2C(c2cc3cc(C)ccc3[nH]c2=O)N2CCN(C)CC2)cc1 (configuration not stated)	·	i	0.85	·	·	-1	96
CCN(CC)S(=O)(=O)c1cc(C(=O)c2nccn2C)ccc1Cl	·	i	0.98	·	·	4	103
C/C(=N\Nc1ncc(Cl)cc1Cl)c1ccc(C#N)cc1	·	i	1	22	132	2	104
CCCCn1nnc(NC(=O)c2sc3cc(Cl)ccc3c2Cl)n1	-1.2	i	0.98	-7	145	2	99
Cc1cc(N2CCN(C)CC2)n2cc(-c3ccc(F)cc3)nc2n1	-2.4	i	0.75	-32	114	-14	100
COc1cc(/C=C/C(=O)N2CCCN(C(=O)/C=C/c3cc(OC)c(OC)c(OC)c3)CC2)cc(OC)c1OC	·	i	0.81	·	·	12	108
Cc1ccc(OCC(=O)N/N=C\c2ccc(O)cc2)c([N+](=O)[O-])c1	·	i	0.94	·	·	0	104
COc1ccc(NC(=O)CSc2ccc(-c3cccs3)nn2)c(OC)c1	·	i	0.77	·	·	-5	106
O=C(Nc1cccc([N+](=O)[O-])c1)c1ccc(CSc2ccccc2)cc1	-1.0	i	0.86	-8	92	-1	103
Cc1cccc(NC(=O)Cn2cc(C(=O)c3ccco3)c3ccccc32)c1	-3.0	i	1	-15	50	2	105
O=C1OCC(CO)(CO)N=C1NNc1ccc(Cl)c(Cl)c1	-2.1	i	1	·	·	-9	86
C/C(=N/NC(=O)c1ccncc1)C1=C(O)CC(C)(C)CC1=O	·	i	1	-14	117	4	104
CCOC(=O)C(Cc1ccccc1)NC(=O)Cn1nnc(-c2ccccc2)n1 (configuration not stated)	-2.5	i	0.85	·	·	-1	103
O=C(NCCC1=CCCCC1)C1CCCN(S(=O)(=O)c2cccc3cccnc23)C1 (configuration not stated)	-0.3	i	0.98	·	·	2	104
CCCCOCCCNC1=NCCCCC1	-1.2	i	0.87	-12	121	-3	-11*
COc1ccc(N=c2oc3cc(O)ccc3cc2C(=O)NCC2CCCO2)cc1 (configuration not stated)	16*	i	0.78	·	·	-18	99
CC1=CC(C)(C)N(C(=O)CSc2nnc(C)s2)c2ccc(C)cc21	-0.7	i	1	16	133	-10	102
O=C(Cc1ccccc1)NC1(O)C(=O)c2ccccc2C1=O	·	i	1.1	·	·	·	98
O=C(NCC(c1ccco1)N1CCOCC1)c1cccc([N+](=O)[O-])c1 (configuration not stated)	·	i	0.94	-22	89	-5	103
C=C1[C@@H](C)C2[C@H](Cc3ccccc3)NC(=O)[C@]23OC(=O)CC[C@H](O)CCC[C@H](C)C/C=C/[C@H]3[C@@H]1O (some centres not stated)	·	i	0.65	·	·	·	99
OC(CN1CCN(c2ccccn2)CC1)Cn1c2ccc(Cl)cc2c2cc(Cl)ccc21 (configuration not stated)	-0.7	i	0.74	-18	55	1	103
O=C(CSc1nc2ccccc2c2nc3ccccc3n12)NCc1ccco1	4.1	i	0.96	5	66	-10	103
O=C([C@H](Cc1ccc(O)cc1)n1cc(CCO)nn1)N1CCNCC1	·	i	1	·	·	6	103
CC(C)(C)SCCNC(=O)/C=C/c1cccc([N+](=O)[O-])c1	-0.7	i	0.87	·	·	0	49
O=C(Nc1nc2ccccc2[nH]1)C1CCCC1	·	i	0.81	·	·	-3	103
